RanGTP-Imp inh: inhibitors of RanGTP-importin-beta interaction, primary screen, biochemical, FRET, CFP-Ran, YFP-importin-beta, homogeneous; hit rate 1.1% among 300,000; AID 2216; inhibition, % (no concentration beside the values); cell-free CFP-Ran/YFP-importin-beta FRET ratio;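 active = most replicates above 15%; inconclusive = exactly half above 15%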;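 note: 0% = DMSO wells and 100% = Ran loaded with GDP instead of GTP; wells of about 40 µL received 100 nL stock; the first replicate is given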
LANA-H2B inh: blocks KSHV LANA binding to histone H2A/H2B. cell-free LANA-H2A/H2B peptide, fluorescence polarization. inhibition, % (concentration not given with the values). Q9QR71. hit rate 0.6% among 320,000; in the data active = inhibition mostly above about 10%, no sharp cut-off; inactive = mostly below about 6.7%;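 note: stock transfer was 7.5 nL into about 10 µL; 0% = median of vehicle wells and 100% = median of positive control wells; one replicate is shown; the record names a cut of 25% in any replicate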
Calb FLC: C. albicans growth modulation with fluconazole. growth inhibition, % (test concentration not listed). hit rate 0.57% among 300,000. C. albicans CaCi-2 (fluconazole-resistant clinical isolate) + fluconazole, Alamar Blue growth, 48 h;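 active = most replicates above 75%; inconclusive = exactly half above 75%; inactive = most below 75%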;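 note: all wells also contain fluconazole at 8 µg/ml as a sub-toxic cotreatment; 0% = median of DMSO wells and 100% = median of geldanamycin control wells; wells of about 8 µL received 7.5 nL stock; the first replicate is given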
MLL AF4-AF9 inh: MLL-AF4/AF9 protein interaction inhibition | hit rate 0.47% among 350,000 | AID 651704 | AlphaScreen, biotin-AF4 peptide binding to FLAG-AF9 | inhibition, % at 10 µM;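 active = every replicate reaching a set inhibition limit, whatever the replicate mean, cut at about 25% in these data; inconclusive = mean inhibition reaches that limit but some replicates miss it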;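 note: 0% = plate neutral control median and 100% = total signal loss; the record names both 10 and 1 µM as test concentration; the first replicate is given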
Target sequence (P42568 whole entry, looked up): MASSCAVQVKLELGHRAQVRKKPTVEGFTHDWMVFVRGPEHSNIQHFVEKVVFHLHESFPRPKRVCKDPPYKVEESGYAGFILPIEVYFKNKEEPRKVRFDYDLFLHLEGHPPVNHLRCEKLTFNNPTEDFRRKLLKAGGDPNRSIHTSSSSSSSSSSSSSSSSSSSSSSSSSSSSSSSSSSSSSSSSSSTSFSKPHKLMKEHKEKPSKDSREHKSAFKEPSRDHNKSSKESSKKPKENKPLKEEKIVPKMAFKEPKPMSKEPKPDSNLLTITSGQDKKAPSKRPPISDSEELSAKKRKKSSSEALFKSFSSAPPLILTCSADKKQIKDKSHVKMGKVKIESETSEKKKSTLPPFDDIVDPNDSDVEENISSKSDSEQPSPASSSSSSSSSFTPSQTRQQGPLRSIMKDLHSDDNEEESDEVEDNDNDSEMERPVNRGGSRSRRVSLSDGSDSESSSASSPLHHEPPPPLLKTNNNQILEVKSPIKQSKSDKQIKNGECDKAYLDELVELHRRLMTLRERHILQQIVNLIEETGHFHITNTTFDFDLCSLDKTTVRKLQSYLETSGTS
T cruzi repl: T. cruzi replication inhibition; AID 1885; T. cruzi beta-gal in NIH3T3, luminescence, 90 h; hit rate 1.4% among 300,000; inhibition, % (concentration not given with the values);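 active = mean inhibition across valid replicates above about 55%, limit read from the data; inconclusive = mean below that limit but half or more replicates reach it; inactive = mean below it, under half of replicates reach it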;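 note: signal also drops with host cell toxicity which is not excluded here; 0% = plate median of DMSO wells and 100% = zero luminescence signal; higher percent means less beta-gal luminescence so fewer parasites; stock transfer was 50 nL into about 50 µL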
Vif A3G: inhibitors of Vif binding to APOBEC3G peptide, primary screen, biochemical, TR-FRET, GST-Vif 1-94, biotin-A3G peptide, dose response retest (AID 1117319); one-dose inhibition, %; IC50 in µM for titrated hits; TR-FRET GST-Vif / biotin-A3G peptide binding; higher % means a stronger effect; test concentration not given here; strong numbers were not always called active; hit rate 0.57% among 260,000;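 active = above the screen mean plus three standard deviations and confirmed in dose response; inconclusive = results disagree or hit not tested in dose response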;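 note: Vif residues 1-94 fused to GST binding biotinylated APOBEC3G peptide 110-148; 0% = full assay without inhibitor and 100% = GST in place of GST-Vif; retest series ran down from 100 µM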
Beta cell apopt: blocks beta cell apoptosis | INS-1E cytokine-induced death, ATP luminescence, 48 h; percent of positive-control rescue, neutral wells zero | protection from apoptosis, % (no concentration beside the values) | hit rate 0.8% among 300,000 | AID 435005;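 active = all replicates at 75% or more, or half of them and the mean; inconclusive = half reach 75% but not the mean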;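 note: 0% = cytokine-treated negative control wells and 100% = positive control rescue; higher means more ATP so stronger rescue from cytokine killing; wells of about 40 µL received 100 nL stock; the first replicate is given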
A1 inh: inhibitors of the anti-apoptotic protein A1, read as caspase activation; MEF A1-2A-BIM cells, Caspase-Glo 3/7 luminescence, 3 h; percent of clofoctol response, vehicle zero; caspase activation, % (no concentration beside the values); hit rate 0.066% among 330,000; AID 2462;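 active = over half of replicate activation scores above 10%, or exactly half above 10 with the replicate mean above 10; inconclusive = replicate mean below 10 yet half the replicates above 10; inactive = over half of replicates below 10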;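 note: wells of about 30 µL received 50 nL stock; many hits fall short of the cut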
The depositor's hits bear a star; ? = inconclusive; . = not tested or not shown.

The opening 3 compounds, to show the layout:
SMILES | RanGTP-Imp inh | LANA-H2B inh | Calb FLC | MLL AF4-AF9 inh | T cruzi repl | Vif A3G | Beta cell apopt | A1 inh
CC1(C)Cc2c(sc(NC(=O)C(=O)N3CCCC3)c2C#N)CO1 | 1.5 | 3.9 | 0 | 1.1 | 2 | . | 2 | 0.5
COc1ccc2[nH]c(C(=O)N/N=C/c3cc(OC)c(OC)c(OC)c3)cc2c1 | 8.9 | 2.2 | 23 | 4.7 | -15 | -2% | 41 | -1.5
COC(=O)c1ccccc1NC(=O)NCc1ccco1 | -5.9 | -0.1 | -3 | . | -20 | 2% | -5 | 0.7

The listing, previewed entries included:
SMILES | RanGTP-Imp inh | LANA-H2B inh | Calb FLC | MLL AF4-AF9 inh | T cruzi repl | Vif A3G | Beta cell apopt | A1 inh
CC1(C)Cc2c(sc(NC(=O)C(=O)N3CCCC3)c2C#N)CO1 | 1.5 | 3.9 | 0 | 1.1 | 2 | . | 2 | 0.5
COc1ccc2[nH]c(C(=O)N/N=C/c3cc(OC)c(OC)c(OC)c3)cc2c1 | 8.9 | 2.2 | 23 | 4.7 | -15 | -2% | 41 | -1.5
COC(=O)c1ccccc1NC(=O)NCc1ccco1 | -5.9 | -0.1 | -3 | . | -20 | 2% | -5 | 0.7
CC1(C)NC(=O)N(CCCCOc2ccc(Br)cc2Cl)C1=O | 5.0 | 1.9 | ? | . | 5 | -1% | -10 | -0.3
Cc1[nH]c2ccc(-c3n[nH]c(=S)n3Cc3ccccc3)cc2c1C | 1.0 | 3.6 | 17 | 2.1 | 11 | -10% | 3 | -0.5
Oc1ccc(Br)cc1/C=N/N1CCN(Cc2cccc3ccccc23)CC1 | -4.2 | -0.6 | -2 | 4.6 | 7 | -10% | 1 | -0.8
O=C(CSc1nnc(SCc2ccccc2)s1)N/N=C/C=C/c1ccccc1[N+](=O)[O-] | -4.5 | 0.8 | 0 | . | -2 | . | -3 | -0.9
O=C(NCc1ccc(Cl)s1)C1CCC(=O)N(CCc2ccccn2)C1 (stereo not given) | 0.5 | 3.6 | -3 | 1.4 | -21 | -8% | -4 | 0.1
N#Cc1c(SCC(=O)Nc2cccc(C(F)(F)F)c2)sc2c(O)cc(=O)[nH]c12 | 4.0 | 5.0 | 5 | -1.2 | -11 | 14% | -5 | -2.0
Cc1ccc(NC(=O)C2CCN(S(=O)(=O)c3ccc(F)cc3)CC2)cc1 | 3.3 | -4.1 | -22 | . | 10 | -4% | 1 | 0.7
O=C(COC(=O)c1cc(Cl)ccc1Cl)NC1CCCC1 | -0.6 | 2.6 | -2 | 0.7 | -16 | . | -6 | -0.4
Cc1ccc(NC(=O)COc2cccc(C)c2C)cc1S(=O)(=O)N1CCCCCC1 | -4.5 | -1.4 | . | -0.5 | 25 | 3% | -6 | 0.5
CCCCNC(=O)N1CCN(C/C=C/c2ccccc2)CC1 | 2.5 | 2.2 | 12 | -2.7 | -7 | 15% | 0 | 0.8
CC(=O)NC1=NN(C(C)=O)C(C)(CCS(=O)(=O)c2ccc(Cl)c(Cl)c2)S1 (stereo not given) | -3.0 | -5.1 | 6 | . | 15 | . | 6 | -0.2
COC(=O)CSc1nc(NC(C)C)nc(N(C)C)n1 | 1.8 | 0.2 | -28 | -0.1 | -2 | 19% | -7 | -2.4
COc1ccccc1C1NC(=O)NC(C)=C1C(C)=O (stereo not given) | ? | 0.3 | -10 | . | -14 | 0% | -3 | -0.6
Cc1ccnc(N2C(=O)c3cccc4c([N+](=O)[O-])ccc(c34)C2=O)c1 | -18 | 0.0 | 15 | -6.5 | 64* | ? | 18 | 0.1
O=C(Nc1ccccc1NC(=O)c1ccccc1Cl)c1ccccc1Cl | -1.6 | -8.7 | -2 | -1.3 | 3 | . | -8 | 0.6
O=C1c2ccccc2C(=O)N1CCN1CCOCC1 | 11 | 4.6 | -8 | 4.1 | -17 | 1% | -5 | 0.1
CCOC(=O)N1CCN(C(=O)COc2cc(=O)n(CC)c3ccccc23)CC1 | -0.4 | -1.1 | -11 | . | -2 | -10% | -4 | 0.5
CC1=NN(c2ccccc2)C(=O)/C1=C/c1c(C)[nH]n(-c2ccc(C)cc2)c1=O | 3.4 | -7.4 | 1 | . | -1 | . | -3 | 0.1
O=S(=O)(c1ccccc1)N1CCN(C2CCCCCCC2)CC1 | -2.8 | -0.5 | -12 | . | 13 | 3% | 7 | 0.9
CC(C)(C)OC(=O)NCc1ccc(NC(=O)c2nc[nH]c2C(=O)N[C@@H](Cc2ccccc2)C(=O)OC(C)(C)C)cc1 | -0.4 | -2.0 | 18 | . | 14 | . | 22 | 0.8
Cc1ccc(S(=O)(=O)N[C@H](C(=O)N2CCC(C(=O)NCC(=O)O)CC2)C(C)C)cc1 | 2.7 | 6.4 | 42 | . | -20 | 4% | -1 | 0.2
COCCN(CC(=O)Nc1cccc(C)c1C)C(=O)CN1C(=O)NC2(CCCCC2)C1=O | . | 1.9 | . | -2.3 | . | -1% | -3 | 1.4

Other records:
SMILES | RanGTP-Imp inh | LANA-H2B inh | Calb FLC | MLL AF4-AF9 inh | T cruzi repl | Vif A3G | Beta cell apopt | A1 inh
COc1ccc(NC(=O)C2CC(=O)OC23CCOC(C)(C)C3)cc1 (stereo not given) | -0.2 | -0.8 | 0 | . | -16 | -1% | 1 | -0.5
O=C(c1ccco1)N1CCN(Cc2cccnc2)CC1 | -2.2 | 2.2 | 4 | . | -8 | 11% | -2 | 0.8
CCOCCCNC(=S)N1CCC(NC(=O)C2CCCCC2)CC1 | ? | 3.6 | -4 | -2.1 | -1 | 0% | -6 | 1.3
COc1ccc(NC(=O)Nc2cccc3ccccc23)cc1OC | -1.3 | 7.0 | -5 | -1.5 | -2 | . | -3 | 1.6
CC(=O)Nc1ccc(S(=O)(=O)NCCCCNS(=O)(=O)c2ccc(NC(C)=O)cc2)cc1 | 0.2 | -3.6 | 12 | -0.2 | -3 | -2% | . | 0.9
O=C(CN(C(=O)CCC(=O)Nc1nccs1)c1ccc(F)cc1)NCc1ccc(F)cc1 | 3.8 | 1.9 | -21 | -0.8 | 17 | . | -4 | -0.4
O=c1[nH]c2ccc(S(=O)(=O)N3CCCCC3)cc2o1 | -1.0 | 3.4 | 1 | 2.9 | -19 | 5% | . | 0.3
Cc1ccc(S(=O)(=O)/C=C/c2ccccc2)cc1 | -1.4 | -6.4 | -1 | 3.1 | 8 | -11% | -6 | 0.8
CCn1c(SCC(=O)Nc2cc(C)on2)nnc1-c1ccc(S(=O)(=O)N2CCCC2)cc1 | 5.7 | -4.3 | -13 | . | -3 | -7% | 2 | -0.2
COc1ccc(N(CC(=O)NCc2ccc(F)cc2)C(=O)CCC(=O)Nc2nccs2)cc1 | 3.6 | 7.4 | 5 | -9.3 | -5 | 0% | -10 | 2.2
CCOC(=O)N/N=C/c1ccccc1OCc1ccc(Cl)cc1 | 3.2 | -3.2 | -4 | 11 | 12 | 7% | . | 0.1
CCC(SC1=Nc2ccccc2C2=NC(CC(C)C)C(=O)N12)C(=O)Nc1ccc2c(c1)OCO2 (stereo not given) | 2.8 | -5.3 | 20 | . | 5 | ? | 4 | -0.7
CCOP(=O)(OCC)C(Nc1ccc(OC)cc1)c1ccco1 (stereo not given) | 6.3 | -7.1 | ? | 0.5 | -10 | 10% | -1 | 0.8
CC(C)C(C)N(Cc1ccc(C(=O)O)cc1)C(=O)c1ccc2ccccc2n1 (stereo not given) | 2.2 | 0.4 | -4 | . | -13 | . | -4 | 0.2
CC1=C(C(=O)Nc2ccc(C)cn2)C(c2cnn(C)c2)C2=C(CCCC2=O)N1 (stereo not given) | 5.5 | -8.7 | 20 | -1.2 | -11 | 10% | -3 | 0.4
COc1ccc(Cl)cc1NC(=O)CN(C)C(=O)CN1C(=O)NC2(CCCC2)C1=O | 3.7 | 1.4 | 26 | -37 | -1 | 4% | . | 0.1
CCCC(=O)Nc1sc(Cc2ccccc2)c(C)c1C(N)=O | ? | 0.1 | 31 | 0.3 | -9 | 1% | -7 | -0.9
O=C(NC(=S)Nc1nc2c(s1)CCCC2)c1ccccc1 | -1.3 | -3.6 | -7 | 1.6 | 4 | . | -3 | -1.4
O=C(NC1=NCCS1)c1ccc(Cl)c(S(=O)(=O)N2CCCCC2)c1 | 0.2 | 0.3 | -1 | . | 5 | 14% | -7 | ?
COc1ccccc1CNC(=O)c1cc(C2CC2)nc2c1cnn2C(C)C | . | -0.7 | . | -3.0 | . | -14% | 0 | 0.6
O=S(=O)(Nc1ncn[nH]1)c1ccc(Cl)cc1 | 0.0 | 1.5 | -5 | . | -9 | -14% | -1 | 0.0
COc1ccc2c(c1)C(c1cccs1)=NNC(c1cccnc1)=N2 | 0.3 | 2.1 | -6 | 3.8 | 2 | 26% | . | 0.0
O=C(Cc1ccc(NS(=O)(=O)c2ccc(F)cc2)cc1)NCc1ccccc1 | -3.2 | . | -3 | . | 1 | 6% | -3 | 0.4
COc1cc2c(cc1[N+](=O)[O-])n(C(C)C)c(=O)n2C(C)C | ? | -2.7 | -12 | 1.1 | 9 | . | -4 | -0.5
C#Cc1cccc(C(=O)N2CCCC(CCC(=O)NCc3ccccc3F)C2)c1 (stereo not given) | 0.3 | 1.2 | -21 | -1.1 | 8 | -2% | 8 | 0.0

The list continues:
SMILES | RanGTP-Imp inh | LANA-H2B inh | Calb FLC | MLL AF4-AF9 inh | T cruzi repl | Vif A3G | Beta cell apopt | A1 inh
Cc1cc(Cl)nc(-c2ccccc2)n1 | 7.6 | -1.1 | -6 | 0.4 | -7 | . | 5 | -0.1
O=C(NCC(c1cccs1)N1CCOCC1)c1ccccc1NS(=O)(=O)c1ccc(Br)cc1 (stereo not given) | -3.4 | . | 45 | . | -2 | . | 2 | 1.2
CCc1cc(=O)oc2cc(C)cc(OCC(=O)N3CCC[C@@H]3C(=O)O)c12 | ? | -5.4 | -6 | -2.8 | 10 | . | -7 | 0.4
S=c1[nH]nc(-c2ccccc2)n1/N=C/c1ccc(Cl)cc1 | -2.9 | 1.2 | -3 | -4.6 | 5 | 13% | 2 | 1.2
O=C(c1ccc(Br)cc1)C1CCc2occc2C1=O (stereo not given) | 4.9 | -7.0 | 23 | . | -17 | 27% | 0 | 0.4
CCOC(=O)N1CCC(N2CCN(S(=O)(=O)CC)CC2)CC1 | 1.4 | 2.0 | -2 | . | -10 | 1% | 1 | 0.1
O=C(Nc1ccccc1C(=O)N1CCCCC1)C1CCCCC1 | 2.1 | -13 | -5 | . | -19 | 5% | -1 | 0.6
Cn1nc(-c2ccccc2)c(/C=N/O)c1Cl | 1.1 | 5.2 | -12 | -1.0 | -7 | -4% | -4 | 0.9
Cc1cccc(Cn2cnc3c(nnn3Cc3ccccc3F)c2=O)c1 | ? | 1.4 | -13 | . | 24 | 7% | -9 | 1.0
COc1cc(C(=O)COC(=O)C2CC2(Cl)Cl)cc(OC)c1OC (stereo not given) | . | 2.4 | . | 0.9 | . | -12% | -6 | 0.4
COc1cc(C)ccc1OCc1cc(C(=O)N2CCCCCC2)no1 | -5.9 | . | -18 | -7.0 | 0 | . | . | .
O=C(NCC(c1ccco1)N1CCc2ccccc21)C(=O)Nc1ccccc1F (stereo not given) | -3.1 | 4.9 | -5 | 0.9 | 24 | -6% | -4 | -0.7
